Compound activity deposited in PubChem by National Center for Advancing Translational Sciences (NCATS).
Vaccinia mCherry – inhibitors of vaccinia virus infection (mCherry reporter signal); Vaccinia virus mCherry reporter infection, fluorescence; about a quarter of the inactives have no number; hit rate 0.63% among 310,000; Potency, µM (top dose mostly 36.5 µM), inactives show at the top dose activity change, negative = inhibition, usual class: inhibitors; active = well fitted inhibition curve with a large enough effect; inconclusive = small, poorly fitted or top-dose-only effect; inactive = no such curve, though single readings can be large or run the other way; tested in A549 cells; further: nearly all actives have a fitted effect of over 35% in size; inactives centre near -10
Vaccinia Venus – vaccinia inhibition (Venus reporter) | Vaccinia virus Venus reporter expression, fluorescence | Potency, µM (titrated, usually from 36.5 µM), without a hit: at the top dose activity change, negative = inhibition, actives largely listed as inhibitors | hit rate 0.46% among 330,000; active means well fitted inhibition curve with a large enough effect; inconclusive means small, poorly fitted or top-dose-only effect; inactive means no such curve, though single readings can be large or run the other way; tested in A549 cells; further: nearly all actives have a fitted effect of over 30% in size; inactives centre near -10
* hit, by the source's call; i = inactive; ? = inconclusive; / = not tested or not shown; & = joins results of further samples; [ ] = dose if it differs, or a comment. On the % scale 0 is the no-effect control and ±100 the full control effect; potency means the concentration at half of the fitted maximal effect.

Every second line gives: Vaccinia mCherry, Vaccinia Venus
- O=C(CSc1n[nH]c(-c2ccncc2)n1)Nc1ccc(F)cc1
→ -5%, -2%
- CCN(CCCNC(=O)C1CCN(S(=O)(=O)c2c(C)[nH]c(=O)[nH]c2=O)CC1)c1cccc(C)c1
→ /, 7%
- O=C(OCc1cn([C@H]2CN(C(=O)C3CCCCC3)[C@@H](c3ccccc3)C[C@@H]2O)nn1)c1ccccc1
→ 4%, -16%
- COc1ccc(S(=O)(=O)CCc2nc3ccccc3s2)cc1
→ -7%[1.46 µM], -7%
- CCc1c(C)nc2ncnn2c1NC1CCCc2ccccc21 (centres undefined)
→ -12%, -9%
- Cc1cc(NC(=O)CCOc2ccccc2)no1
→ -17%, -2%
- COc1ccc(N2CC(O)=C(c3nc(-c4ccc(F)cc4)cs3)C2=N)cc1
→ i, 8%
- CC1(c2cc(C(F)(F)F)n3nc(C(=O)O)cc3n2)CC1
→ -11%, -3%
- C=CCC[C@H](Cc1ccc(F)cc1)C(=O)OC[C@@H](C)NC(=O)[C@@H](CC=C)CC(=O)N[C@@H](CO)Cc1ccccc1
→ i, -9%
- COc1ccc(C(=O)NNC(=O)CCC(=O)Nc2ccc(C)cc2C)cc1
→ -12%, -11%
- O=C(CN1C(=O)NC2(CCCCCC2)C1=O)c1cccs1
→ i, -17%
- CCNC(=S)Nc1cc(OC)c(NC(=O)c2ccco2)cc1OC
→ i, -5%
- CCCn1c2ccccc2c2nnc(SCC(=O)Nc3ncccn3)nc21
→ /, 11µM*
- CCOC(=O)C1CCN(C(=O)COC(=O)CNC(=O)c2ccc(OC)cc2)CC1
→ 7%, -3%
- Cc1ccccc1NC(=O)CSc1nc(-c2ccc(F)cc2)c2cccc(C)c2n1
→ -10%, -8%
- CCN(CC)S(=O)(=O)c1ccc(NC(=O)CCNC(=O)c2ccco2)cc1
→ -12%, 8%
- CN(C)CCNC(=O)CCCn1c(=O)c2cccn2c2ccccc21
→ 1%, -3%
- CCn1c(C(=O)NCc2ccccc2OC)cc2sccc21
→ -17%, -11%
- CCOC(=O)Cn1ccc2cc(S(=O)(=O)N3CCCC3)ccc21
→ i, -9%
- COc1ccc(Cl)cc1NC(=O)N(C)CCc1c(C)nn(C)c1C
→ -13%, -5%
- O=C(COC(=O)Cc1ccc(Cl)cc1Cl)NC1CC1
→ -12%, 11%
- Cc1ccc(-c2nc3ccsc3c(=O)[nH]2)cc1
→ -6%, -13%
- O=C(NCC1CCCC(CNC(=O)Nc2ccc(Cl)cn2)C1)Nc1ccc(Cl)cn1 (centres undefined)
→ -25%, -22%
- CC(C)C(c1nnnn1C1CCCC1)N1CCN(C(=O)c2ccco2)CC1 (centres undefined)
→ -3%, -5%
- O=C(CCCn1c(=O)c2ccccc2n(Cc2cccc(Cl)c2)c1=O)NCCc1ccc(Cl)cc1
→ -23%, -14%
- COCCN1C(=O)c2ccccc2C(C(=O)Nc2ccc3c(c2)OCCO3)C1c1ccc(F)cc1 (centres undefined)
→ -16%, -13%
- COc1ccc(CC(=O)Nc2ccc(S(=O)(=O)Nc3ncccn3)cc2)cc1OC
→ -13%, -8%
- COC(=O)c1ccccc1SCC(=O)Nc1ccc(N2CCOCC2)cc1
→ -16%, -3%
- Cc1ccc(Cl)cc1NC(=O)C(Cc1ccccc1)N1C(=O)C2C3CCC(C3)C2C1=O (centres undefined)
→ i, -16%
- O=C(Nc1ccc2ccccc2c1)c1ccc(NS(=O)(=O)c2ccc(Br)s2)cc1
→ -9%, -14%
- CC1(OC(=O)C2CCCC2)C(=O)C=C2C=C(c3ccsc3)N(C3CCCCC3)C=C2C1=O (centres undefined)
→ -2%, -13%
- CCN(C(=O)COC(=O)c1cc(OC)ccc1Br)C1CCS(=O)(=O)C1 (centres undefined)
→ i, -12%
- O=c1cc(-c2ccco2)oc2ccccc12
→ -14%, -13%
- O=C1CCCN1CCCNC(=S)Nc1ccccc1Cl
→ -2%, -2%
- CCCCCCn1c(Br)nc2c1c(=O)n(C)c(=O)n2C
→ i, -5%
- COc1ccccc1-n1c(CNC(=O)c2ccccc2)nnc1SCC(=O)Nc1nnc(C)s1
→ 28%, 10%
- O=C(O)c1ccc(N2C(=O)c3cccnc3C2=O)cc1
→ -1%, 6%
- c1ccc(CC2CNc3ccccc3CN2)cc1 (centres undefined)
→ i, -7%
- CCC(C)NS(=O)(=O)c1cccs1 (centres undefined)
→ i, -14%
- Cc1ccc(NC2CCCN(C(=O)CCC3(C)CC3)C2)cc1C (centres undefined)
→ i, -16%
- CCOC(=O)NC(=S)c1ccc[nH]1
→ -10%, -3%
- CCCCCCCCCN(CCCCCCCCC)c1ccc(/C=C/c2ccnc3ccccc23)cc1
→ 39%[activator], 16%
- CCC(CO)Oc1cc(NCc2cccc(C)c2)c2ncn(C(C)C)c2c1 (centres undefined)
→ ?, -14%
- CCOc1cc(CNS(=O)(=O)c2ccc3c(c2)CC(=O)N3C)cc(OCC)c1OCC
→ -13%[7.34 µM], 0%[7.34 µM]
- Cc1cc(NC(=O)Nc2ccc(Cl)c(Cl)c2)n(-c2ccccc2)n1
→ -17%, -10%
- COc1ccc(CNCC(O)(c2ccccc2)c2ccccc2)cc1
→ -22%, -11%
- COc1ccc(C(=O)N2CCCCC2C(=O)Nc2ccc(-n3nc(C)cc3C)cc2)o1 (centres undefined)
→ -1%[7.34 µM], -14%[7.34 µM]
- NCCc1ccc(O)cc1
→ -5%&-3%&-13%, 2%&-2%&-4%
- COC(=O)c1ccc(NC(=O)c2cc(=O)c3ccc(C)cc3o2)cc1
→ i, -25%
- O=CNc1c(Br)cc2c(c1Br)Cc1cc(Br)ccc1-2
→ -8%, -6%

Carrying on.
Every second line gives: Vaccinia mCherry, Vaccinia Venus
- Cc1cccc(-c2nc3scc(CCNC(=O)c4ccccc4Cl)n3n2)c1
→ -3%, -2%
- CN1C(=O)/C(=C/c2ccc(C(F)(F)F)cc2)Sc2ccc(C(=O)N3CCN(c4ccccn4)CC3)cc21
→ -30%, -28%
- Cc1cccc(C)c1NC(=O)CSCCO
→ -4%, 0%
- CCC(CC)NC(=O)COC(=O)c1cc(Br)ccc1Cl
→ i, -12%
- COc1cc(-c2cnc3c(NC=O)cc(-c4cccnc4)cn23)cc(OC)c1OC
→ ?, ?
- N#Cc1c(C(F)(F)F)cc(-c2cccs2)nc1SCC(=O)Nc1ccc(Cl)cc1
→ ?, -28%
- CC1=C(C(=O)OCc2ccc(C)cc2)C(c2ccccc2Cl)CC(=O)N1 (centres undefined)
→ -16%, -13%
- CN(C)CC(O)COC(c1ccc(Cl)cc1)c1ccc(Cl)cc1 (centres undefined)
→ -9%, -24%
- COc1ccccc1/C=C/CN1CCN(c2ccccc2)CC1
→ -13%, -12%
- Cc1ccc(SCC(=O)Nc2cccc(NC(=O)c3ccco3)c2)cc1
→ 4%, -28%
- O=c1[nH]c(=O)n(CCO)c2nnn(Cc3ccccc3)c12
→ -8%, -8%
- Cc1ccc2oc(C(=O)Nc3ccc(S(=O)(=O)N(C)Cc4ccccc4)cc3)cc(=O)c2c1
→ 19%, -2%
- CN(C)S(=O)(=O)c1cccc(COC(=O)CNC(=O)c2ccc(Br)o2)c1
→ -4%, 0%
- Cc1ccc(S(=O)(=O)c2ccc([N+](=O)[O-])cn2)cc1
→ ?, -26%
- Cn1c(=O)oc2cc(S(=O)(=O)N3CCCC(C(=O)N4CCN(c5ccc(F)cc5)CC4)C3)ccc21 (centres undefined)
→ -16%, -18%
- Cc1ccc2[nH]c(=O)c3cc(C(=O)N(CCCOC(C)C)Cc4ccco4)sc3c2c1
→ ?, ?
- Brc1ccc(-c2csc(N/N=C/c3ccco3)n2)cc1
→ ?, ?
- COc1ccc(NC(=O)Cn2c(=O)oc3cc(S(=O)(=O)N4CCCC4)ccc32)cc1OC
→ -27%, -28%
- CCOc1cc(/C=N/Nc2ncc(C)c(=O)[nH]2)ccc1O
→ -14%, -18%
- CCOC(=O)C1C(=O)C=C(c2cccs2)CC1c1ccccc1 (centres undefined)
→ -14%, 3%
- O=C(NCc1ccc(F)cc1)C1CCN(S(=O)(=O)c2ccc(N3CCCC3=O)cc2)CC1
→ -12%, -7%
- Cc1cc(OCc2nc(-c3cccs3)no2)cc(C)c1Cl
→ 6%, 0%
- COc1ccc(-c2ccc3c(c2)CN(c2cccc(Cl)c2)Cc2cnnn2-3)cc1
→ i, -2%
- CCOc1ccc(C(=O)c2ccc(OC)c(O)c2O)cc1
→ i, -5%
- COc1cc(OC)c(C2C(C(=O)Nc3ccccc3)=C(C)Nc3ncnn32)cc1OC (centres undefined)
→ 8%, -6%
- Cn1c(C(=O)N2CCC(C(=O)N3CCC4(CC3)OCCO4)CC2)cc2sccc21
→ -11%, -13%
- CCOc1ccc2[nH]c(C)c(CN3CCCCC3)c(=O)c2c1
→ -13%, -16%
- Cc1cccc(NC(=O)CCCn2c(C)c3cnn(-c4ccccc4)c(=O)c3c2C)c1C
→ -4%, 1%
- O=C(COc1ccccc1)N=C1SC2CS(=O)(=O)CC2N1c1ccccc1 (centres undefined)
→ i[7.34 µM], 0%[7.34 µM]
- O=C(C1=C(O)C(=O)N(Cc2ccccc2)C1c1ccco1)c1ccco1 (centres undefined)
→ /, -18%
- CC1CCc2c(sc3nnn(CC(=O)Nc4ccccc4Cl)c(=O)c23)C1 (centres undefined)
→ -5%, 5%
- Nc1cc([N+](=O)[O-])ccc1Nc1ccccc1
→ -24%, -29%
- CCC(CO)Oc1cc(NC(=O)c2ccccc2)c2ncn(C(C)C)c2c1 (centres undefined)
→ -13%, -7%
- CCCCN1CCCCC1(C)C(=O)NCc1ccc2c(c1)OCO2 (centres undefined)
→ 26%, 3%
- COc1ccc(N2CC(C(=O)N3CCN(Cc4ccc5c(c4)OCO5)CC3)CC2=O)cc1 (centres undefined)
→ 9%, 1%
- COC(=O)c1ccc(Cl)c(S(=O)(=O)N2CCCC2)c1
→ -9%, -13%
- COc1ccc(-c2cn3nc(N4CCC(C(=O)NCc5ccccc5F)CC4)sc3n2)cc1
→ -15%, -15%
- Cc1ccc(S(=O)(=O)Nc2ccccc2CNc2ccccn2)cc1
→ -7%, -14%
- CCCCN(CC)CCCNC(=O)c1cn(C)c(=O)c2c1c1ccccc1n2C
→ -4%, -1%
- COc1ccc(NC(=O)/C=C/c2ccc(OC)c(OC)c2)cn1
→ -16%, 9%
- Cc1ccc2c(NC(=O)C3CC3)cccc2n1
→ /, -9%
- COC(=O)[C@]12CCCCC=C1N(Cc1ccc3c(c1)OCO3)C(=O)[C@H](CC(=O)N1CCCCC1)C2
→ 8%, -15%
- CC1CCN(Cc2nc3c(c(=O)n(C)c(=O)n3C)n2CCc2ccccc2)CC1
→ -6%, -13%
- COC(=O)[C@H](C)NC(=O)Nc1cc(Cl)ccc1C
→ i, -5%
- O=c1c(Cc2ccc(F)cc2)c(O)ccn1Cc1ccc(Cl)cc1Cl
→ /, -20%
- CCOC(=O)C1=C(C)N=c2s/c(=C\c3cccc(OCC(=O)O)c3)c(=O)n2C1c1ccccc1 (centres undefined)
→ i, 6%
- COc1ccc(S(=O)(=O)N(C)C)cc1NC(=O)CN1C(=O)NC2(CCCC2)C1=O
→ -12%, 4%
- Cc1cc2cc(C#N)c(SCC(=O)Nc3nonc3C)nc2cc1C
→ -10%, -15%
- CCN(CC)C(=O)COC(=O)c1ccc(C)c(NC(=O)c2ccco2)c1
→ i, -1%
- Cc1ccc(NC(=O)CCN2C(=O)OC(C)(C)C2(C)O)cc1 (centres undefined)
→ -6%, -1%

Reprinted from the part before: five entries; new compounds follow.
Every second line gives: Vaccinia mCherry, Vaccinia Venus
- CCOC(=O)C1=C(C)N=c2s/c(=C\c3cccc(OCC(=O)O)c3)c(=O)n2C1c1ccccc1 (centres undefined)
→ i, 6%
- COc1ccc(S(=O)(=O)N(C)C)cc1NC(=O)CN1C(=O)NC2(CCCC2)C1=O
→ -12%, 4%
- Cc1cc2cc(C#N)c(SCC(=O)Nc3nonc3C)nc2cc1C
→ -10%, -15%
- CCN(CC)C(=O)COC(=O)c1ccc(C)c(NC(=O)c2ccco2)c1
→ i, -1%
- Cc1ccc(NC(=O)CCN2C(=O)OC(C)(C)C2(C)O)cc1 (centres undefined)
→ -6%, -1%
- O=C(/C=C/c1ccc(F)cc1)N1CCCN(C(=O)/C=C/c2ccc(F)cc2)CC1
→ -12%, 0%
- Cc1cccc(C(=O)NC2CC3CCCC(C2)N3C(=O)NC2CCCCC2)c1 (centres undefined)
→ i, 0%
- C/C(CC(=O)Nc1ccc(OCc2ccccc2)cc1)=N\NC(=O)C(=O)Nc1cccc(C)c1
→ ?, ?
- CSc1n[nH]c(=O)n1-c1cccc(Cl)c1
→ -13%, -2%
- Cc1cccc(NC(=O)CCSc2nnc(Cc3ccccc3)o2)c1
→ -15%, -6%
- COc1ccc(C(=O)NCCCSc2ccccc2)cc1F
→ -13%, -2%
- O=Cc1cccn1-c1ccc(O)cc1
→ i, 0%
- CC(C)(C)S(=O)(=O)N1Cc2ccc(CO)cc2[C@@H]1CCO
→ -21%, -16%
- CC(=O)Nc1cccc(-c2nc3ccccc3s2)c1
→ i, -14%
- COc1ccc(Cc2c(-c3ccc(F)cc3)nc3cc(C)c(Br)c(C)n23)c(C)c1
→ -8%, -10%
- O=C(c1ccc([N+](=O)[O-])cc1Cl)N1CCN(Cc2ccccc2)CC1
→ -7%, -12%
- COc1ccccc1C(=O)N1CCN(C(=O)[C@H]2O[C@@H](n3ccc(=O)[nH]c3=O)[C@H](O)[C@@H]2O)CC1
→ -11%, 0%
